Screening results from PubChem.
gsp antagonist: qHTS for Antagonists of gsp, the Etiologic Mutation Responsible for Fibrous Dysplasia/McCune-Albright Syndrome: qHTS; gsp-mutant cells, cAMP HTRF, 30 min; control for the full effect not named in the record; Potency, µM (series often up to 76.9 µM), for the others: at the highest dose activity change, negative = inhibition, hits mostly inhibitors; 0.4% of 340,000 active; AID 624288, 2012; active = falling curve of any shape with a large fitted effect; inconclusive = falling curve, mostly with a smaller effect; inactive = flat or rising curve; cell line not stated here;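 note: intracellular cAMP measured with PDE inhibitor Ro 20-1724 present during compound exposure; potency is the fitted concentration of half-maximal effect; % is set by controls: 0 for no effect and ±100 for the full control effect; nearly all actives have a fitted effect of over 65% in size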
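Cells, 2000/well, grown 16–24 h in DMEM 10% FBS with 0.5 mg/ml G418, then compounds plus […] (300 uM addition stock), 30 min at 37C. cAMP read by HTRF (cAMP-d2 and anti-cAMP antibody-K in lysis buffer) after 30 min RT.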
gsp ag: qHTS for Agonist of gsp, the Etiologic Mutation Responsible for Fibrous Dysplasia/McCune-Albright Syndrome: qHTS | gsp mutant cells, cAMP HTRF, 30 min; control for the full effect not named in the record | Potency, µM (series often up to 76.9 µM), for the others: at the highest dose activation (cAMP increase), hits mostly activators | AID 624287, 2012 | 0.13% of 340,000 active; active = well fitted activation curve with a large enough effect; inconclusive = small, poorly fitted or top-dose-only effect, or another doubt; inactive = no such curve, though single readings can be large or run the other way; cell line not stated here;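 note: phosphodiesterase inhibitor Ro 20-1724 added with compounds to block cAMP breakdown; potency is the fitted concentration of half-maximal effect; nearly all actives have a fitted effect of over 60% in size; about a fifth of the inactives were tested at one dose only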
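Cells in DMEM/10% FBS with G418 were pretreated with compounds in DMSO plus […] (300 uM stock) for 30 min at 37C. cAMP was measured by HTRF (cAMP-d2 plus anti-cAMP antibody-K) after 30 min at room temperature.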
TRPML1 blocker: qHTS for Inhibitors of the Human Mucolipin Transient Receptor Potential 1 (TRPML1); Mucolipin-1 (Homo sapiens), Q9GZU1; TRPML1-inducible cells, Ca2+ dye fluorescence, FDSS; stronger effect = lower value; inhibition of EC80 agonist-evoked calcium signal; activity change, negative = inhibition, % (no concentration beside the values); 0.02% of 390,000 active; in the data active means activity change below about -50%; inconclusive means about -30% to -50%; inactive means above about -30%;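 note: stimulus is agonist 54-4 at its EC80 concentration; % is set by controls: 0 for no effect and ±100 for the full control effect; compound concentration not given in the record; the text of the record puts the active cut at -80%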
Target sequence (Q9GZU1 whole entry, looked up): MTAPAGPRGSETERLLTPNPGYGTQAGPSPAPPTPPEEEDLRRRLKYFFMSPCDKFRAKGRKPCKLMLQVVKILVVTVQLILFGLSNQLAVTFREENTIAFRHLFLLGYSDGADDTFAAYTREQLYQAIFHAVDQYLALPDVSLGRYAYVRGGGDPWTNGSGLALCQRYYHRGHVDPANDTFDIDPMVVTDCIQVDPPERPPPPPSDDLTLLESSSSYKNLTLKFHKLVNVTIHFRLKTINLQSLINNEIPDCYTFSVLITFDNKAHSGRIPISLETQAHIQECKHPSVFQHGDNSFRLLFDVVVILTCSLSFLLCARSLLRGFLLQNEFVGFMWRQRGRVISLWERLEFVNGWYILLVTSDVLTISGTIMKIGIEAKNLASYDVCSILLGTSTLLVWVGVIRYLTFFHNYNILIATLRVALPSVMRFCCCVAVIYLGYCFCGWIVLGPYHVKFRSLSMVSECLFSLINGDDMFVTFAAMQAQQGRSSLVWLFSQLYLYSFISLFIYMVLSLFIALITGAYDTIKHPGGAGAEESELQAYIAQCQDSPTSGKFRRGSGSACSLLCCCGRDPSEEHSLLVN
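TRPML1-DL cells, Tet-induced overnight (~16 h, 37 °C) at 1,500 cells/well, were loaded with Ca8 no-wash dye plus quencher for 45-90 min at room temperature. Compounds were pinned during FDSS kinetic reading; agonist 54-4 at EC80 (4 uM final) then added.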
ClpP mod: qHTS Assay for Activators of ClpP; ATP-dependent Clp protease proteolytic subunit (Bacillus subtilis (strain 168)), P80244; purified B. subtilis ClpP, FRET peptide cleavage, 20 min; Potency, µM (series often up to 57.5 µM), without a hit: at the top dose activity change, negative = active; 1.9% of 340,000 active; AID 651965, 2013; active = well fitted falling curve with a large enough effect; inconclusive = small, poorly fitted or top-dose-only effect; inactive = no such curve, though single readings can be large or run the other way; note: potency is the fitted concentration of half-maximal effect; the source files actives as falling curves though it sought activators and does not explain the sign; nearly all actives have a fitted effect of over 65% in size; many hits overshoot -100%
Target sequence (P80244 whole entry, looked up): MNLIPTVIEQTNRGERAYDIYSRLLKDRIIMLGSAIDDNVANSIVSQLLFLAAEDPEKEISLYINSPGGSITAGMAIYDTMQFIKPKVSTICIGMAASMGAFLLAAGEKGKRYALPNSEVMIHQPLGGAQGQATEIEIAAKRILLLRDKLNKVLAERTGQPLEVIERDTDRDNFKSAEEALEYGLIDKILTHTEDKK
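FRET quenching reversal measured ClpP activation: 10 microg/mL B. subtilis ClpP at pH 8 with the FRET-FV decapeptide, read at 430 nm after 320 nm excitation. The 20-min minus 0-min signal was scaled between DMSO/no-enzyme wells and ADEP (5.8 microM final).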
Menin MLL FP FL: qHTS Assay for Inhibitors Targeting the Menin-MLL Interaction in MLL Related Leukemias: Competition With Fluorescein Labeled MLL-derived Peptide. FP activity change, % at 61.4 µM. 290,000 tested, under 10 active. Fluorescence polarization, fluorescein-MLL peptide displacement from menin; inconclusive = falling polarisation curve, or a change in total fluorescence; inactive = total fluorescence flat and polarisation flat or rising; no compound was filed as active; the % refers to the polarisation; negative = inhibition;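 note: % of control where 0% means no effect; inhibitors lower the polarisation; unlabelled MLL peptide was the positive control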
TRPML1 agonist: qHTS for Agonists of the Human Mucolipin Transient Receptor Potential 1 (TRPML1) | Mucolipin-1 (Homo sapiens), Q9GZU1 | TRPML1-expressing cells, Ca2+ dye fluorescence, FDSS; host cell line not named in the record; reference of the full effect not given here | activation, % (no concentration beside the values) | 0.12% of 410,000 active; in the data active = activation above about 50%; inconclusive = about 30% to 50%; inactive = below about 30%; note: 0% is about no effect; the text of the record puts the active cut at 80%
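TRPML1-DL cells, Tet-induced overnight (~16 h, 37 degrees C), loaded 45-90 min at room temperature with Ca8 no-wash calcium dye plus quencher. FDSS fluorescence: 10 s baseline, compound pin-transfer, 110 s agonist read, then EC80 54-4 (4uM final) and 110 s antagonist read.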
Starred values were filed as active, the others as inactive; ? = inconclusive; nt = no result given; & = joins results of further samples; [ ] = dose if it differs, or a comment. Rows are unselected. Share with any hit: about 2.1%.

Molecule | gsp antagonist | gsp ag | TRPML1 blocker | ClpP mod | Menin MLL FP FL | TRPML1 agonist
COc1ccc(C(=O)C(C)OC(=O)CNC(=O)c2ccco2)cc1 (configuration not stated) | 2% | 18% | -16 | -1.8% | nt | 0.0
CC(=O)Cn1nnc(-c2ccc(C(F)(F)F)cc2)n1 | 12% | -5% | -5 | 1.0% | 5.1 | -0.6
O=C(COc1ccc2oc3c(c2c1)CCCC3)Nc1cccc(Br)c1 | nt | nt | -18 | -5.9% | nt | 1.2
O=C(CCc1ccccc1)NCCc1ccc(F)cc1 | 8% | -69%[inhibitor] | 9 | 0.6% | -3.6 | 0.4
CC(=O)c1cccc(CN(C)CC2CCCN(CCc3ccccc3C)C2)c1 (configuration not stated) | 4% | -10% | nt | -0.1% | 3.7 | nt
Cc1ccc(NC(=O)CSCC(=O)NC2(C)CCS(=O)(=O)C2)cc1 (configuration not stated) | -7% | 9% | -11 | 1.3% | nt | -0.2
COC(=O)c1ccc(NC(=O)CCc2c(C)nn(-c3ccc(N4CCCC4)nn3)c2C)cc1 | nt | nt | -11 | -1.0% | nt | -0.5
Nc1[nH]nc2nc(NCc3ccccc3)c3c(c12)CCN(Cc1ccccc1)C3 | 1% | -60%[inhibitor] | 2 | 0.8% | -1.7 | -0.6
FC(F)(F)c1nc(NCc2ccccc2)c2nnn(Cc3ccccc3)c2n1 | 14% | -14% | 16 | -5.2% | 1.1 | -1.0
Cc1ccc(C)c(OCCn2cc(C(=O)O)c3ccccc32)c1 | -20% | -7% | 21 | nt | 1.3 | 0.3
Cc1cccc(C)c1NC1=NC(=S)N(c2ccc(N(C)C)cc2)C1(C)C | -16% | 2% | 7 | -1.2% | -3.3 | -0.4
Cc1sc2nc(CSCC(=O)Nc3ccc(N4CCOCC4)cc3)[nH]c(=O)c2c1C | -7% | 38% | nt | -2.1% | 9.1 | nt
CC(NC(=O)c1cccc(S(=O)(=O)N(C)C)c1)C1CC2CCC1C2 (configuration not stated) | -1% | 27% | -4 | nt | 0.4 | -0.2
COc1cc(C2N=C(c3ccccc3)NO2)cc(Br)c1O (configuration not stated) | -13% | -2% | -2 | -3.2% | 2.6 | -0.9
Cc1ccc(S(=O)(=O)N2CCN(C(=O)c3ccc(Cl)nc3)CC2)cc1 | -3% | -10%[15.4 µM] | 41 | nt | 0.0 | -1.4
c1cc2c(cc1C1CCCCC1)c1c3n2CCCNC3CCC1 (configuration not stated) | 10% | ? | 8 | -3.4% | 4.3 | 0.0
Oc1ccc(Br)cc1C=Nc1ccc(Cl)cc1 | -9% | 12% | -8 | -0.2% | 6.3 | 3.8
COc1cc(-c2nnc(COC(=O)c3nn(CC(C)C)c(=O)c4ccccc34)o2)cc(OC)c1OC | -2% | -2% | 1 | 25% | nt | 2.2
CC(=O)Nc1c(-c2ccc3ccccc3c2)nc2ccccn12 | 3% | -3% | 0 | 2.9% | 4.4 | 1.0
CC[n+]1c(C)cc(C)n1-c1ccccc1 | 8% | -51%[inhibitor] | -10 | nt | -1.0 | 0.0
COc1ccc2nc(C)cc(SCC(=O)NNC(=O)COc3ccccc3)c2c1 | -13% | -30% | -17 | -6.4% | -1.4 | -0.3
COc1ccc(C(=O)NCc2ccncc2)cc1S(=O)(=O)NCc1ccc(Cl)cc1 | -1% | -51%[inhibitor] | -3 | -1.4% | nt | 0.3
O=C(c1ccco1)N1CCN(Cc2nnnn2C2CCCCC2)CC1 | -15% | -1%[15.4 µM] | -5 | 0.8% | 0.4 | -0.5
Cc1ccc(-c2csc(NC(=O)c3cccc(C)c3)c2C(=O)O)cc1 | -22% | 6%[15.4 µM] | 5 | -0.2% | nt | -1.0
COc1cccc(-n2c(SCC(=O)Nc3nc4ccccc4s3)nc3ccccc3c2=O)c1 | 1% | 0%[15.4 µM] | 4 | nt | -0.9 | 0.4
COC(=O)c1ccsc1NC(=O)c1ccccc1 | 4% | 12% | 1 | -11% | 0.8 | -0.8
CN(C(=O)COC(=O)c1ccc2c(=O)n3c(nc2c1)CCC3)c1ccccc1 | 2% | 23% | 15 | -13% | -2.6 | 0.2
O=C(Nc1ccc(C(=O)N2CCCCC2)cc1)c1cccs1 | -11% | 0%[15.4 µM] | -7 | 0.4% | -13 | -1.3
CCOc1cc(CO)cc(Br)c1OCC(N)=O | -7% | -3% | 6 | 0.4% | -3.0 | 0.3
CCN(C(=O)CSc1nnc(-c2cccc(F)c2)n1N)c1c(N)n(Cc2ccccc2)c(=O)[nH]c1=O | 13% | -3%[15.4 µM] | -1 | nt | nt | -0.5
CC(=O)Nc1cccc(C(=O)OC(C)C(=O)NC(=O)NC2CCCCC2)c1 (configuration not stated) | 9% | -13% | 0 | 1.1% | nt | 0.1
Cc1ccc(-n2cc[nH]c2=S)cc1C | 6% | -19%[15.4 µM] | -23 | -1.1% | 3.6 | 0.2
COC(=O)[C@@H]1C[C@H]1[C@@H](NS(=O)(=O)c1ccccc1)c1ccccc1 | -1% | -2% | 13 | -1.7% | 2.9&-1.9 | 0.0
CC(=O)c1ccc(NC(=O)C(C)N(C)CC(=O)Nc2ccc(N3CCOCC3)cc2)cc1 (configuration not stated) | -3% | 7%[15.4 µM] | 0 | nt | 1.4 | -0.7
CCc1cccc(NC(=O)c2snc3c(=O)[nH]cnc23)c1 | -1% | -28% | 11 | -0.8% | 2.7 | -0.1
COc1ccc2[nH]c3c(=O)n(N)c(=O)[nH]c3c2c1 | -17% | 33% | 5 | 4.1% | 3.8 | -0.4
O=C(Nc1cc2c(ccc3ccccc32)oc1=O)C1CCCCC1 | -4% | -22% | 16 | ? | 6.1 | -0.4
COc1ccc(-c2cn3c(n2)sc2cc(C(=O)NCCCN4CCCCCC4)ccc23)cc1 | nt | nt | 5 | -19% | nt | -0.1
O=C(Nc1nnc(SCc2ccc(F)cc2)s1)c1ccco1 | -2% | 12% | -12 | -3.9% | -0.7 | 0.2
Cc1c(C(=O)NC2=NCCS2)cccc1[N+](=O)[O-] | 7% | 21% | ? | nt | -2.9 | -0.2
COc1ccc(Cc2nnc(N)s2)cc1 | 4% | -12% | -2 | -1.5% | 3.1 | -0.2
CNCCOCC(O)CSc1ccccc1 (configuration not stated) | 2% | -11% | -7 | -1.2% | 1.6 | 0.0
CC1=C(C(=O)Nc2ccccc2C)C(c2ccc[nH]2)n2ncnc2N1 (configuration not stated) | nt | nt | 20 | -6.4% | nt | 1.3
O=C(CCCC1=NS(=O)(=O)c2ccccc2N1)NCCc1ccc(Cl)cc1 | 4% | 42% | -6 | -0.2% | nt | -0.9
Cc1cc(NC(=O)COc2cccnc2[N+](=O)[O-])no1 | 9% | -5%[15.4 µM] | -8 | -4.3% | 0.4 | 0.4
COc1ccc(N(CC(=O)Nc2ccccc2C)S(=O)(=O)c2ccccc2[N+](=O)[O-])c(OC)c1 | -16% | 12%[15.4 µM] | -5 | nt | -1.5 | 1.1
CCOc1ccc(OC(=O)c2ccc3c(=O)n4c(nc3c2)CCC4)cc1 | -12% | -12%[15.4 µM] | -4 | -3.9% | nt | 0.5
COc1ccc(C(=O)Nc2cc([N+](=O)[O-])ccc2N2CCCC2)cc1 | -39% | -16%[15.4 µM] | -9 | nt | 3.9 | 0.5
C/C(=N/NC(=O)c1cc(C)[nH]n1)c1ccncc1 | 6% | 4% | -13 | nt | -11 | 1.0
Cc1c(C(=O)N2CCN(S(=O)(=O)c3ccccc3F)CC2)oc2c(Cl)cccc12 | -23% | -33%[inhibitor] | 6 | -2.3% | nt | 0.9
COC(=O)c1nc(NC(=O)c2ccccc2Cl)n[nH]1 | 6% | -8% | 1 | 1.7% | -0.6 | -0.3
CCNC(=O)C1CCCN(C(=O)c2cnc3ccccc3n2)CC1 (configuration not stated) | nt | nt | 7 | 3.0% | nt | -0.4
CS(=O)(=O)Nc1ccc(C(=O)N2CCN(c3ccccc3)CC2)cc1 | 8% | -14% | 6 | -0.4% | -0.4 | -0.6
CCCc1nnc(NC(=O)c2ccc(S(=O)(=O)N(C)c3ccccc3OC)cc2)s1 | 4% | 1% | -1 | -1.9% | nt | 0.8
CC1CCN(c2nc3ccc(C(=O)NCc4ccc(Cl)cc4)cc3s2)CC1 | nt | nt | -5 | -2.2% | nt | -1.2
CC(=O)Nc1nc(NC(=O)C(Cl)(Cl)Cl)n(-c2ccccc2)n1 | 9% | 7%[15.4 µM] | -5 | -1.0% | -0.2 | -0.4

Three entries out of the list above, arranged by the value under TRPML1 blocker, high to low.
| Molecule | TRPML1 blocker |
| --- | --- |
| COc1cccc(-n2c(SCC(=O)Nc3nc4ccccc4s3)nc3ccccc3c2=O)c1 | 4 |
| COc1cc(C2N=C(c3ccccc3)NO2)cc(Br)c1O (configuration not stated) | -2 |
| Oc1ccc(Br)cc1C=Nc1ccc(Cl)cc1 | -8 |

Arranged by number of heavy atoms (largest number first): part of the list above
Molecule | gsp antagonist | gsp ag | TRPML1 blocker | ClpP mod | Menin MLL FP FL | TRPML1 agonist
COc1ccc(-c2cn3c(n2)sc2cc(C(=O)NCCCN4CCCCCC4)ccc23)cc1 | nt | nt | 5 | -19% | nt | -0.1
CCCc1nnc(NC(=O)c2ccc(S(=O)(=O)N(C)c3ccccc3OC)cc2)s1 | 4% | 1% | -1 | -1.9% | nt | 0.8
CC1=C(C(=O)Nc2ccccc2C)C(c2ccc[nH]2)n2ncnc2N1 (configuration not stated) | nt | nt | 20 | -6.4% | nt | 1.3
